D2 potentiator: potentiates the human D2 dopamine receptor allosterically; P14416; DiscoveRx D2 beta-arrestin cells, luminescence, 90 min; 100% = 57 uM dopamine signal; potentiation, % (no concentration beside the values); 0.23% of 360,000 active; AID 624464; active = potentiation of 50% or more; inconclusive = 30% to 50%; inactive = 30% or less;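 note: compound concentration not given in the record; tested on top of an EC20 dose of dopamine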
Target sequence (P14416 whole entry, looked up): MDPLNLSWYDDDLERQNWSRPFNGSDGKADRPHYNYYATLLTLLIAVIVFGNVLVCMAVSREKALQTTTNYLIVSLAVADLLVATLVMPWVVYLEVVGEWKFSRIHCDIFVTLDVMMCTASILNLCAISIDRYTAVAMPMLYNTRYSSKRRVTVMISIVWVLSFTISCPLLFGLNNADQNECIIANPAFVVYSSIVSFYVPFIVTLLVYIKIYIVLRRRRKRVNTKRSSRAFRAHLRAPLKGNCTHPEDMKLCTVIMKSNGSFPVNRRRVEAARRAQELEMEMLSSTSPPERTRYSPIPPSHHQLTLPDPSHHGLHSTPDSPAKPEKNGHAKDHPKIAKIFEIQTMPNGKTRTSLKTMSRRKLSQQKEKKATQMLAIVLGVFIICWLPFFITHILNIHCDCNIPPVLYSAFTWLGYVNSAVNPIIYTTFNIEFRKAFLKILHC
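PathHunter beta-arrestin assay in DiscoveRx D2 cells. Compounds were added with an EC20 of dopamine (50 nM final) for 90 min at 37 deg C. Luminescence was read 1 h after detection reagent, with 57 uM dopamine as the EC100 control.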
gsp ag: activates gsp, the McCune-Albright syndrome mutation | Potency, µM (series often up to 76.9 µM), inactives show at the top dose activation (cAMP increase), usual class: activators | gsp mutant cells, cAMP HTRF, 30 min; control for the full effect not named in the record | 0.13% of 340,000 active | AID 624287; active = well fitted activation curve with a large enough effect; inconclusive = small, poorly fitted or top-dose-only effect, or another doubt; inactive = no such curve, though single readings can be large or run the other way; cell line not stated here;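 note: phosphodiesterase inhibitor Ro 20-1724 added with compounds to block cAMP breakdown; potency is the fitted concentration of half-maximal effect; nearly all actives have a fitted effect of over 60% in size; about a fifth of the inactives were tested at one dose only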
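Cells stably selected in G418 were plated at 2000/well, grown 16-24 hr, then given compounds in DMSO with the PDE inhibitor […] (300 uM solution added) for 30 min at 37C; cAMP was read by HTRF.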
Menin-MLL FL inh: displaces fluorescein MLL peptide from human menin; Fluorescence polarization, fluorescein-MLL peptide displacement from menin; FP activity change, % at 61.4 µM; 290,000 tested, under 10 active; inconclusive = falling polarisation curve, or a change in total fluorescence; inactive = total fluorescence flat and polarisation flat or rising; no compound was filed as active; the % refers to the polarisation; negative = inhibition;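 note: % of control where 0% means no effect; inhibitors lower the polarisation; unlabelled MLL peptide was the positive control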
Sfp inh: inhibitors of Bacillus subtilis Sfp phosphopantetheinyl transferase | 3.5% of 310,000 active | AID 1490 | Biochemical Sfp PPTase activity, qHTS | Q9F4F7 | Potency, µM, for inactives: max response, negative = inhibition, most hits filed as inhibitors; active = well fitted inhibition curve with a large enough effect; inconclusive = small, poorly fitted or top-dose-only effect, or another doubt; inactive = no such curve, though single readings can be large or run the other way;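 note: the enzyme is Sfp with the accession as filed and its product quenches rhodamine fluorescence; potency is the fitted concentration of half-maximal effect; 0% = enzyme reaction without inhibitor and -100% = no enzyme wells; top concentration of the series not given in the record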
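After 15 min at room temperature with compound, 15 nM Sfp received 5 uM rhodamine-CoA plus 12.5 uM BHQ-2-ybbR (50 mM Hepes pH 7.6, 10 mM MgCl2). Rate came from the fluorescence difference over 30 min, ex 525/em 598 nm.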
gsp antagonist: antagonizes gsp, the McCune-Albright syndrome mutation; gsp-mutant cells, cAMP HTRF, 30 min; control for the full effect not named in the record; AID 624288; 0.4% of 340,000 active; Potency, µM (highest dose often 76.9 µM), without a hit: top-dose activity change, negative = inhibition, actives largely listed as inhibitors; active = falling curve of any shape with a large fitted effect; inconclusive = falling curve, mostly with a smaller effect; inactive = flat or rising curve; cell line not stated here;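 note: intracellular cAMP measured with PDE inhibitor Ro 20-1724 present during compound exposure; potency is the fitted concentration of half-maximal effect; % is set by controls: 0 for no effect and ±100 for the full control effect; nearly all actives have a fitted effect of over 65% in size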
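Cells in G418 medium, seeded 16-24 h, 37C; buffer exchange to DPBS + 1 mM CaCl2, 0.5 mM MgCl2, 0.05% BSA; cpds in DMSO + […] (300 uM stock), 30 min 37C; HTRF cAMP detection.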
TRPV1 potentiator: potentiators of human vanilloid receptor 1 (TRPV1) | TRPV1-expressing cells, Fluo-8 calcium influx, capsaicin EC20 potentiation; host cell line not named in the record; control for the full effect not named in the record | AID 540277 | 0.02% of 320,000 active | potentiation, % at 8.33 µM; active means potentiation above 80%; inconclusive means 30% to 80%; inactive means below 30%; note: 0% is about no effect
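Fluo-8 calcium influx in TRPV1-expressing cells, kinetic read (ex 480/em 520 nm). Compound added and read 3 min for agonist activity, followed by capsaicin at EC20 final and 2 min further read for enhancement.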
ClpP mod: qHTS Assay for Activators of ClpP; Potency, µM (top dose mostly 57.5 µM), for the others: top-dose activity change, negative = active; purified B. subtilis ClpP, FRET peptide cleavage, 20 min; 1.9% of 340,000 active; AID 651965, 2013; ATP-dependent Clp protease proteolytic subunit (Bacillus subtilis (strain 168)), P80244; active = well fitted falling curve with a large enough effect; inconclusive = small, poorly fitted or top-dose-only effect; inactive = no such curve, though single readings can be large or run the other way; note: potency is the fitted concentration of half-maximal effect; the source files actives as falling curves though it sought activators and does not explain the sign; nearly all actives have a fitted effect of over 65% in size; many hits overshoot -100%
Target sequence (P80244 whole entry, looked up): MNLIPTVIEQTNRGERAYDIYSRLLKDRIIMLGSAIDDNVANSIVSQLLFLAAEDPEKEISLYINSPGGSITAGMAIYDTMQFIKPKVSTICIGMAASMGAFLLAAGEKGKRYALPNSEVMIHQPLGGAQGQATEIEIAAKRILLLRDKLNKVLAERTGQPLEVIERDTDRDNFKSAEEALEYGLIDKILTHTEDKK
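ClpP 10 microg/mL final, pH 8 Tris/KCl buffer with BSA, glycerol, Tween-20; compound pinned in; FRET-FV substrate; RT 20 min; Ex320/Em430; ΔFRET vs ADEP 5.8 microM, DMSO, no enzyme.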
* = called active by the depositor; ? = inconclusive; / = no result given; & = joins results of further samples; [ ] = another dose, or the depositor's remark. Not all compounds are listed; the hit share may differ from the screen's.

Structure | D2 potentiator | gsp ag | Menin-MLL FL inh | Sfp inh | gsp antagonist | TRPV1 potentiator | ClpP mod
CC(=O)Nc1ccc(CC(=O)N2CCN(Cc3ccccc3)CC2)cc1 | -27 | -15%[15.4 µM] | 8.0 | 2% | 12% | -12 | 0.8%
CN1C(=O)C(=Cc2ccc(OCC(=O)Nc3ccccc3)cc2)C(=O)N(C)C1=O | 22 | -3% | / | 50µM* | -2% | -17 | 16µM*
COc1cccc(CN2CCNCC2)c1 | -5 | 23% | -0.4 | -2% | 0% | 13 | /
CCc1cc(=O)[nH]c(SCCCF)n1 | 0 | 13%[15.4 µM] | -0.5 | -13% | -2% | 0 | /
CN(C)CC1CSCCC1(O)c1ccccc1 (centres undefined) | -27 | -3% | -0.6 | 16% | 9% | -10 | -1.8%
CCS(=O)(=O)Nc1ccc(C2=NN(C(=O)c3ccco3)C(c3ccc(Cl)o3)C2)cc1 (centres undefined) | -14 | -15%[15.4 µM] | / | / | ? | / | -2.7%
C=CCc1cc(OC)c2c(c1)OCO2 | -10 | / | / | / | 7% | -2 | -1.9%
CC(C)CN1CCN(Cc2ccc(C(F)(F)F)cc2)CC1CCO (centres undefined) | -11 | -17%[15.4 µM] | 0.7 | 7% | 15% | -5 | /
Cc1ccc2c(c1)C1CN(C)CCC1N2C(=O)/C=C/c1ccc2c(c1)OCO2 (centres undefined) | -11 | 3% | -6.9 | 9% | 8% | 4 | /
Cn1c(=O)c2c(nc(SCc3ccccc3)n2Cc2ccc(Cl)cc2)n(C)c1=O | -1 | 4% | 1.6 | ? | 20% | 24 | 0.6%
COc1ccc(CNC(=O)C(NC(C)=O)C(C)C)cc1OC (centres undefined) | -4 | 2% | -2.1 | 10% | 5% | -1 | /
O=C(OCc1ccccc1)N1CCC2CC1c1cc(N3Cc4ccccc4-n4nncc4C3)ccc12 (centres undefined) | 0 | 7% | / | / | / | / | -17%
C[N+]1(C)CCN(c2ccccc2)CC1 | 0 | / | -12&-1.5 | 19%&8% | 5% | -10 | -0.9%
c1cc2c(cc1CCNC1CCCCCC1)OCO2 | -29 | -2% | 3.8 | 0% | 8% | 0 | 1.7%
CC1(C)CC(=O)C(C2(O)C(=O)NC(=O)NC2=O)=C(O)C1 | -4 | -66%[inhibitor] | 0.7 | -17% | -1% | 3 | -0.4%
CN1C(=O)N(C)C(=O)C2(Cc3c(nc4ccccn4c3=O)N3CCc4ccccc4C32)C1=O (centres undefined) | -15 | 24% | -1.1 | 17% | -15% | -15 | -7.4%
CCOC(=O)C1(c2ccccc2)CCN(CC(=O)c2ccc(NC(C)=O)cc2)CC1 | -16 | -22% | / | / | -4% | / | /
C[N+]1(C)C2CCC1CC(OC(=O)c1ccco1)C2 (centres undefined) | -7 | 11% | -2.7 | -10% | 9% | 2 | 0.5%
C[C@]12CC[C@@H](O)CC1=CCC1C2CC[C@@]2(C)C1C[C@@H](F)[C@@H]2O (some centres undefined) | -2 | 4% | / | / | 10% | / | /
Cc1ccc(-n2nc(C)cc2NC(=O)COc2cc(C)cc3oc(=O)c4c(c23)CCC4)cc1 | 2 | 20% | 5.9 | -25% | -16% | -7 | 25µM*
Cn1c(O)c(C=NC2C(=O)C3(C)CCC2C3(C)C)c(=O)n(C)c1=O (centres undefined) | -5 | 29% | 0.0 | 8% | 3% | 3 | -2.5%
C[C@]12CC[C@H]3[C@@H](CC[C@]4(O)C[C@@H](O)CC[C@]34C=O)[C@@]1(O)CC[C@@H]2C1=CC(=O)OC1 | -1 | / | / | / | -3% | 7 | -1.5%
Cn1c(O)c(/C=C/C=Nc2ccccc2)c(=O)n(C)c1=O | 3 | 8%[15.4 µM] | ? | 15% | -1% | -12 | -3.1%
C=C(C)[C@@H]1C2C(=O)O[C@H]1[C@H]1OC(=O)[C@@]34OC3C[C@]2(O)[C@@]14C (some centres undefined) | 6 | / | / | / | 3% | 9 | 0.3%
O=C(COC(=O)Cc1ccccc1)Nc1ccc(Cl)cn1 | 9 | 10%[15.4 µM] | -3.8 | 5% | -1% | -13 | /
CCCCn1c(O)c(C(CC)=Nc2cccc(C(=O)O)c2)c(=O)[nH]c1=O | 25 | ? | -0.7 | -37% | 4% | 16 | -9.1%
Cc1nc(SCc2c(Cl)cccc2Cl)nc(OC(=O)N(C)C)c1C | -20 | -5% | 2.9 | -8% | -22% | -11 | -2.4%
CCCN1CCC(NC2CCC(O)CC2)CC1 (centres undefined) | -3 | 4%[15.4 µM] | -11 | 14% | -17% | 3 | 0.3%
Cc1ccc(S(=O)(=O)N2CC2(C)CCl)cc1 (centres undefined) | -9 | 14% | 1.4 | 10% | -4% | -3 | -2.6%
CN(C)C(=O)Oc1ccc(OC(=O)c2ccccc2)cc1 | 4 | -24% | 4.6 | 7% | -3% | -14 | -0.5%
CC(=O)NCCc1c[nH]c2ccccc12 | -18 | / | ? | 21%&-25%&8%&-3% | 7% | 2 | -6.2%
COc1ccc(N=Cc2c(O)n(Cc3cccs3)c(=O)[nH]c2=O)cc1 | -8 | 19% | -2.4 | 13% | -5% | -5 | 30%
COc1ccc(NC(=O)c2ccc(NC(=O)c3nc4nccc(C)n4n3)cc2)cc1 | -6 | -119%[inhibitor] | / | / | 6% | / | 2.9%
Cc1ccc(OCC(=O)N2CCN(Cc3ccc([N+](=O)[O-])cc3)CC2)cc1 | -13 | ? | -9.5 | 89µM* | 0% | -16 | -6.6%
CCCCOC(=O)C1=C(N)OC2=C(C(=O)CC(C)(C)C2)[C@]12C(=O)N(C)c1ccccc12 | -13 | 7% | 0.5 | 13% | 8% | 29 | -13%
CN(C)C(=O)Oc1cc(=O)n2c3c(cccc13)CCC2 | 0 | 5%[15.4 µM] | / | 10% | 15% | 0 | -1.2%
N#CC(C#N)=Cc1ccc(N2CCCC2)cc1 | -17 | -7%[15.4 µM] | ? | -1% | -1% | -11 | 1.0%
O=C(CCN1CCOCC1)Nc1ccc(Br)cc1C(=O)c1ccccc1 | -2 | 21% | 2.9 | -10% | 9% | 6 | -0.5%
O=C1CCCc2c1nc(-c1ccccc1)n2O | -10 | -57%[inhibitor] | 3.6 | 10% | 7% | -5 | -20%
CCN1C[C@@]2(COC)C3[C@@H](OC)[C@H]4[C@@H]1[C@@]3(C1C[C@@]3(O)[C@H](OC(=O)c5ccccc5)C1[C@]4(OC(C)=O)[C@@H](O)[C@H]3OC)[C@@H](OC)C[C@H]2O (some centres undefined) | 12 | / | / | / | -1% | / | 1.5%
COc1cc2c(cc1OC)[C@H]1C(=O)c3ccc4c(c3O[C@H]1CO2)C[C@@H](C(C)(C)O)O4 | -6 | / | / | / | 2% | / | -1.1%
BrCC(Br)(Br)Br | -7 | / | / | / | 2% | -12 | -0.5%
O=C1C=C2C=C[C@@H]3CC2(O1)[C@H]1CCCCN31 | 9 | / | / | / | 3% | 7 | 1.9%
Cc1ncc(C(=O)O)n1C(C)c1ccccc1 (centres undefined) | -10 | 25% | / | / | / | / | -1.9%
O=C1NC(=O)N(c2ccccc2)C(=O)/C1=C/c1coc2ccc(O)cc2c1=O | 1 | 3% | 15 | 50µM* | -26% | 4 | 3.2%
COc1ccc(CC(C)Nc2cccc(F)c2)cc1 (centres undefined) | 0 | -1% | 2.4 | -20% | 1% | 10 | -2.0%
COc1ccc(OCC(=O)N2CCN(C/C=C/c3ccccc3)CC2)cc1 | -3 | -33% | -4.2 | 13% | -4% | -1 | 2.3%
COc1ccc(N2C(=O)NC(=O)/C(=C\c3ccccc3[N+](=O)[O-])C2=O)cc1 | 21 | -7%[15.4 µM] | 0.2 | 40µM* | 4% | -2 | /
CCc1nnc(NC(=O)CSc2ccc(-c3ccco3)nn2)s1 | -5 | 1%[15.4 µM] | 0.3 | 28µM* | 14% | -27 | /
Nc1cnn(-c2ccccc2)c(=O)c1Cl | -1 | -19%[15.4 µM] | -5.0 | 26% | 4% | 18 | 1.9%
CC/C(=N\NC(=O)c1ccccc1)c1c(O)n(Cc2ccccc2)c(=O)[nH]c1=O | -12 | -8% | ? | 12% | ? | -17 | /
COc1ccc(C(=O)N/N=C/C23CC[C@@H](O)CC2(O)CC[C@@H]2[C@@H]3CCC3(C)C(C4=CC(=O)OC4)CCC23O)cc1 (some centres undefined) | -6 | -3% | 3.3 | 0% | 6% | -27 | 0.3%
NP(=O)(OCCCc1ccccc1)Oc1ccc(Cl)cc1 (centres undefined) | -3 | / | -2.5 | 16% | 11% | 6 | 2.9%
CCn1ccnc1CN1CCCC(C(=O)c2cc(F)ccc2OC)C1 (centres undefined) | -13 | 9%[15.4 µM] | -11 | ? | -3% | 7 | /
COc1cccc(Oc2c(C)oc3cc(OC(=O)N(C)C)ccc3c2=O)c1 | -5 | -37% | -1.4 | 8% | ? | 3 | 0.7%

Part of the list above, showing only D2 potentiator and gsp antagonist:
SMILES	D2 potentiator	gsp antagonist
Cc1ncc(C(=O)O)n1C(C)c1ccccc1 (centres undefined)	-10	/
COc1cccc(Oc2c(C)oc3cc(OC(=O)N(C)C)ccc3c2=O)c1	-5	?
O=C1C=C2C=C[C@@H]3CC2(O1)[C@H]1CCCCN31	9	3%
COc1ccc(OCC(=O)N2CCN(C/C=C/c3ccccc3)CC2)cc1	-3	-4%

Screening data (PubChem BioAssay)
